Source: PubChem BioAssay (Broad Institute)
BJeLR viab HTS – BJeLR cell viability loss, primary screen, luminescence, CellTiterGlo ATP; BJeLR fibroblasts viability, 48 h; HRASV12, hTERT and SV40 LT/ST transformed; viability loss activity score, % (concentration not given with the values); actives 0.64% (n = 30,000); in the data active = viability loss activity score above about 50%; inconclusive = no clear call, values can overlap the other calls; inactive = below about 35%; about a fifth of its hits are not listed in these tables;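 also: higher score means fewer live cells and less ATP luminescence; stock transfer was 50 or 100 nL into about 30 µL; 0% = vehicle wells and 100% = a reference killing control; one replicate is shown; the record names a cut of 85%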
A1 inhib – inducers of caspase activity in MEF A1-2A-BIM cells, primary screen, A1 inhibitor project, cell-based, CaspaseGlo luminescence | caspase activation, % (concentration not given with the values) | AID 2241, 2010 | actives 0.51% (n = 21,000) | caspase-Glo luminescence, 3 h; percent of clofoctol signal, DMSO as zero;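 active = most replicate scores above 10, or exactly half above 10 with mean activity above 10; inconclusive = mean activity below 10 while half the replicates exceed 10; inactive = most replicate scores below 10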;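 also: effector caspase 3 and 7 activity cleaving a DEVD luciferin substrate; 50 nL library stock added to about 30 µL; numbers are from one replicate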
Numbers without * were called inactive; u = inconclusive; x = no result given. This is a subset; the hit share may differ from the screen's.

SMILES	BJeLR viab HTS	A1 inhib
C/C=C1\[C@H](O[C@@H]2O[C@H](CO)[C@@H](O)[C@H](O)[C@H]2O)OC=C(C(=O)OC)[C@H]1CC(=O)OC[C@H]1O[C@@H](OCCc2ccc(O)cc2)[C@H](O)[C@@H](O)[C@@H]1OC(=O)C[C@@H]1C(C(=O)OC)=CO[C@@H](O[C@@H]2O[C@H](CO)[C@@H](O)[C@H](O)[C@H]2O)/C1=C\C	2.5	0.5
COc1ccc(C(CC(=O)Nc2cc(OC)cc(OC)c2)n2cccc2)cc1 (stereo not given)	9.4	0.8
Cc1noc(C)c1S(=O)(=O)N(C)C[C@H]1Oc2c(NS(=O)(=O)c3ccccc3)cccc2C(=O)N([C@@H](C)CO)C[C@H]1C	-0.3	x
CNC[C@@H]1Oc2c(NC(=O)c3cc(C)nn3C)cccc2C(=O)N([C@H](C)CO)C[C@H]1C	3.5	x
CNC[C@@H]1Oc2c(NS(=O)(=O)c3ccc(F)cc3)cccc2C(=O)N([C@H](C)CO)C[C@H]1C	-1.0	x
C[C@H](CO)N1C[C@H](C)[C@H](CN(C)C(=O)Nc2ccc(C(F)(F)F)cc2)Oc2ccc(NC(=O)Cc3cn(C)c4ccccc34)cc2C1=O	-2.1	0.5
COCC(C)NC(=O)c1ccco1 (stereo not given)	-12.9	1.4
COc1ccc(S(=O)(=O)N(C)C[C@@H]2Oc3ccc(NC(=O)Nc4c(C)noc4C)cc3C(=O)N([C@@H](C)CO)C[C@@H]2C)cc1	-2.6	0.5
Cc1noc(C)c1NC(=O)N(C)C[C@H]1Oc2ccc(NC(=O)Nc3ccccc3)cc2C(=O)N([C@@H](C)CO)C[C@@H]1C	-2.6	-1.1
CCn1c2ccccc2c2cc(NC(=O)CCC3CCCCC3)ccc21	1.0	-0.2
C[C@@H]1CN([C@H](C)CO)C(=O)c2cccc(NS(=O)(=O)c3ccccc3)c2O[C@@H]1CN(C)Cc1ccc2c(c1)OCO2	-2.6	x
CC1(C)CC[C@]2(C(=O)O)CC[C@]3(C)C(=CCC4[C@@]5(C)CC[C@H](O[C@@H]6O[C@H](C(=O)O)[C@@H](O[C@@H]7OC[C@@H](O)[C@H](O)[C@H]7O)[C@H](O)[C@H]6O)C(C)(C)C5CC[C@]43C)C2C1O (stereo not given in full)	-7.4	0.7
CCC(C)NC(=O)CSc1ccc(Cl)cc1 (stereo not given)	-0.6	-0.3
C/C(=C\CCC(C)C1CC(O)C2(C)C3CCC4C(C)(C)C(OC5OCC(O)C(O)C5O)CCC45CC35CC(O)C12C)C(=O)O (stereo not given)	-1.7	0.0
COc1ccc(NC(=O)N(C)C[C@H]2Oc3ccc(NC(=O)Nc4ccc(F)cc4)cc3C(=O)N([C@H](C)CO)C[C@H]2C)cc1	-1.3	-0.4
Cc1sc(-n2cccc2)c(C#N)c1C	-0.6	0.1
COC(=O)c1cc2sc(Cl)cc2[nH]1	11.4	0.1
C[C@@H]1CN([C@@H](C)CO)C(=O)c2cc(NC(=O)Nc3ccccc3)ccc2O[C@H]1CN(C)S(=O)(=O)c1ccc(Cl)cc1	-1.4	0.5
C[C@H]1CN([C@@H](C)CO)C(=O)c2cccc(NC(=O)Nc3ccc(C(F)(F)F)cc3)c2O[C@H]1CN(C)Cc1ccccc1	25.9	x
C[C@H](CO)N1C[C@H](C)[C@@H](CN(C)Cc2ccc(C(F)(F)F)cc2)Oc2c(NC(=O)C3CCCCC3)cccc2C1=O	-4.8	x
CN1C(=O)c2ccc(NC(=O)c3cccc4ccccc34)cc2C1=O	-5.0	x
COc1ccc(S(=O)(=O)N(C)C[C@H]2Oc3c(NS(C)(=O)=O)cccc3C(=O)N([C@@H](C)CO)C[C@@H]2C)cc1	1.7	x
COc1ccc2[nH]c(C(=O)N(C)c3ccc(F)cc3F)cc2c1	0.1	-0.6
C[C@H]1CN([C@@H](C)CO)C(=O)c2cccc(N(C)C)c2O[C@@H]1CN(C)S(=O)(=O)c1ccc(Cl)cc1	7.3	x
C[C@@H]1CN([C@H](C)CO)C(=O)c2cccc(NS(C)(=O)=O)c2O[C@H]1CN(C)S(=O)(=O)c1ccc(Cl)cc1	-2.4	x
CC1(C)CC(=O)C=C(Sc2nc3ccccc3o2)C1	76.1*	2.2
Cc1ccc(S(=O)(=O)N(C)C[C@H]2Oc3c(NC(=O)Nc4ccccc4)cccc3C(=O)N([C@H](C)CO)C[C@H]2C)cc1	-3.1	x
C[C@H]1CN([C@@H](C)CO)C(=O)c2cc(NC(=O)c3ccncc3)ccc2O[C@H]1CN(C)S(=O)(=O)c1ccc(Cl)cc1	-1.2	0.1
COc1ccccc1-c1cc(=O)n(CC(=O)O)c2c1CCCC2	5.6	-0.1
COc1ccc(C2Oc3c(OC)cc(/C=C/COC4OC(CO)C(O)C(O)C4O)cc3C2CO)cc1OC (stereo not given)	4.0	0.2
CNC[C@H]1Oc2ccc(NC(=O)Nc3ccc(OC)cc3)cc2C(=O)N([C@H](C)CO)C[C@@H]1C	3.5	0.2
C[C@@H]1CN([C@H](C)CO)C(=O)c2cc(NC(=O)Cn3cnnn3)ccc2O[C@@H]1CN(C)CC1CC1	-0.6	0.3
Cc1ccc(-c2cc(C(F)(F)F)nn2-c2ccc(S(N)(=O)=O)cc2)cc1	u	2.9
COc1c(-c2ccc(O)cc2)oc2cc(O)cc(O)c2c1=O	-4.5	0.8
C[C@H]1[C@H](C)CC[C@]2(C(=O)O)CC[C@]3(C)C(=CC[C@@H]4[C@@]5(C)CC[C@H](O)C(C)(C)[C@@H]5CC[C@]43C)[C@H]12	-2.1	0.2
C[C@H](CO)N1C[C@H](C)[C@@H](CN(C)Cc2ccccc2)Oc2ccc(NC(=O)Nc3ccc4c(c3)OCO4)cc2C1=O	-0.9	0.2
COc1ccc(S(=O)(=O)N(C)C[C@H]2Oc3ccc(NC(=O)Cn4cnnn4)cc3C(=O)N([C@@H](C)CO)C[C@@H]2C)cc1	-5.2	-0.1
CC1OC(O[C@H]2CC[C@@]3(C)C(CC[C@]4(C)C3CC=C3[C@@H]5CC(C)(C)C[C@@H](O)[C@]5(C)CC[C@]34C)[C@@]2(C)CO)C(OC2OC(C(=O)O)C(O)C(O)C2OC2OCC(O)C(O)C2O)C(O)C1O (stereo not given in full)	-0.2	0.4
COc1ccc(C(=O)n2nc3c(c2-c2ccc(OC)cc2)COC(C)(C)C3)cc1	1.5	0.4
C[C@H](CO)N1C[C@H](C)[C@H](CN(C)C(=O)Nc2ccccc2)Oc2ccc(N(C)C)cc2C1=O	1.5	0.7

Overlap with the part before: four entries; new compounds follow.
SMILES	BJeLR viab HTS	A1 inhib
COc1ccc(S(=O)(=O)N(C)C[C@H]2Oc3ccc(NC(=O)Cn4cnnn4)cc3C(=O)N([C@@H](C)CO)C[C@@H]2C)cc1	-5.2	-0.1
CC1OC(O[C@H]2CC[C@@]3(C)C(CC[C@]4(C)C3CC=C3[C@@H]5CC(C)(C)C[C@@H](O)[C@]5(C)CC[C@]34C)[C@@]2(C)CO)C(OC2OC(C(=O)O)C(O)C(O)C2OC2OCC(O)C(O)C2O)C(O)C1O (stereo not given in full)	-0.2	0.4
COc1ccc(C(=O)n2nc3c(c2-c2ccc(OC)cc2)COC(C)(C)C3)cc1	1.5	0.4
C[C@H](CO)N1C[C@H](C)[C@H](CN(C)C(=O)Nc2ccccc2)Oc2ccc(N(C)C)cc2C1=O	1.5	0.7
Cc1ccc(NC(=O)Cn2ccn(CCc3ccc(S(N)(=O)=O)cc3)c(=O)c2=O)cc1F	-0.9	0.5
Cc1ccc2c(C)nc(NC3=NC(C(=O)Nc4ccc(Cl)c(Cl)c4)CC(=O)N3)nc2c1 (stereo not given)	-4.1	0.0
C[C@@H]1CC[C@]2(C(=O)O)CC[C@]3(C)C(=CCC4[C@@]5(C)C[C@@H](O)[C@@H](O)C(C)(C)C5CC[C@]43C)C2[C@]1(C)O (stereo not given in full)	1.8	0.4
Cc1ccc(N2C(=O)CSC2c2ccccc2C(F)(F)F)cc1C (stereo not given)	-12.1	-0.1
COc1ccc(S(=O)(=O)N(C)C[C@@H]2Oc3ccc(NC(=O)C4CCCCC4)cc3C(=O)N([C@@H](C)CO)C[C@H]2C)cc1	3.4	0.7
Cc1ccc(S(=O)(=O)Nc2ccc3c(c2)C(=O)N([C@@H](C)CO)C[C@H](C)[C@H](CN(C)S(=O)(=O)c2cn(C)cn2)O3)cc1	3.9	-0.1
C[C@H](CO)N1C[C@H](C)[C@H](CN(C)C(=O)Nc2ccc(F)cc2)Oc2c(NC(=O)Nc3cccc4ccccc34)cccc2C1=O	-0.6	x
Cc1ccc(CSCc2ccc(C(=O)NCCc3ccccc3)o2)cc1	1.1	0.4
Cc1cc(C)c(Cn2c(S(=O)(=O)Cc3ccccc3)nc3ccccc32)c(C)c1	-0.4	x
Cc1ccc(N(C(=O)C2CCCO2)C2C=CS(=O)(=O)C2)cc1Cl (stereo not given)	-4.5	x
CCCCN1C(=O)S/C(=C\c2cc(C)n(C)c2C)C1=O	2.3	-0.8
C[C@H](CO)N1C[C@H](C)[C@@H](CN(C)Cc2ccc(C(F)(F)F)cc2)Oc2c(NS(C)(=O)=O)cccc2C1=O	-3.0	x
O=C(CCn1c(=O)sc2ccccc21)NCc1cccs1	2.0	x
C[C@H](CO)N1C[C@H](C)[C@H](CN(C)Cc2ccc(C(=O)O)cc2)Oc2c(NS(C)(=O)=O)cccc2C1=O	0.1	x
Cc1cc(O)cc(=O)n1Cc1cccnc1	1.2	0.5
C[C@H](CO)N1C[C@H](C)[C@@H](CN(C)C(=O)Nc2cccc3ccccc23)Oc2c(NC(=O)C3CC3)cccc2C1=O	0.9	x
CC1(C)NC(=S)N(c2ccccc2)N1	-5.4	0.6
Cc1noc(C)c1NC(=O)N(C)C[C@H]1Oc2c(cccc2N(C)C)C(=O)N([C@@H](C)CO)C[C@@H]1C	5.6	x
Cc1ccc(S(=O)(=O)Nc2cccc3c2O[C@@H](CN(C)Cc2ccc(C(=O)O)cc2)[C@@H](C)CN([C@@H](C)CO)C3=O)cc1	3.5	x
C[C@@H]1CN([C@@H](C)CO)C(=O)c2cc(NC(=O)CCCN(C)C)ccc2O[C@H]1CN(C)Cc1ccncc1	0.1	0.3
C[C@H]1CN([C@@H](C)CO)C(=O)c2cccc(NC(=O)C3CCCCC3)c2O[C@H]1CN(C)Cc1ccc(Cl)c(Cl)c1	11.6	x
C[C@H]1CN([C@@H](C)CO)C(=O)c2cccc(NS(=O)(=O)c3ccccc3)c2O[C@@H]1CN(C)C(=O)Nc1ccc(F)cc1	1.3	x
CCCN(CCC)C(=O)CSc1nc2ccsc2c(=O)n1Cc1ccccc1Cl	2.9	0.1
CC(C)C(NC(=O)c1ccc(O)cc1)C(=O)N1CCCC1C(=O)Nc1c(O)cccc1C(=O)O (stereo not given)	6.0	0.8
CCN1CCN(c2nc(-c3ccc(C(C)(C)C)cc3)nc3ccccc23)CC1	2.9	-5.0
O=C(O)/C=C/CCCCCCCC(=O)O	-1.9	0.1
C[C@@H]1CN([C@H](C)CO)C(=O)c2cccc(NS(=O)(=O)c3cn(C)cn3)c2O[C@H]1CN(C)Cc1ccc(Oc2ccccc2)cc1	8.3	x
CC1c2nc3ccccc3n2C(CC(=O)NCc2ccc(Cl)cc2)C(=O)N1Cc1ccccc1 (stereo not given)	-2.2	x
CCc1nc2sc3c(NCCc4ccccc4)ncnc3c2c2c1CCCC2	3.0	0.2
COc1ccc(NC(=O)Nc2ccc3c(c2)C(=O)N([C@H](C)CO)C[C@H](C)[C@H](CN(C)Cc2ccc(Oc4ccccc4)cc2)O3)cc1	1.7	0.5
Cc1noc(C)c1NC(=O)Nc1ccc2c(c1)C(=O)N([C@@H](C)CO)C[C@@H](C)[C@H](CN(C)C(=O)Nc1ccccc1)O2	0.4	0.6
NNc1nncc2ccccc12	2.2	0.3
CCn1c(C(=O)N2CCC(C(=O)O)CC2)cc2sccc21	2.4	0.5
O=C(O)c1cccc(Nc2nc(Nc3ccccc3)nc(N3CCCC3)n2)c1	-0.8	0.6
C[C@@H]1CN([C@@H](C)CO)C(=O)c2cc(NS(=O)(=O)c3ccc(Cl)cc3)ccc2O[C@H]1CN(C)S(=O)(=O)c1cccs1	3.3	0.7
COc1ccc(CN(C)C[C@@H]2Oc3ccc(NS(C)(=O)=O)cc3C(=O)N([C@@H](C)CO)C[C@H]2C)cc1	2.3	-0.4
CC(=O)C(O)(C(=O)OCc1ccc(O[C@@H]2O[C@H](CO)[C@@H](O)[C@H](O)[C@H]2O)cc1)C(C)C (stereo not given in full)	17.5	0.2
C[C@H](CO)N1C[C@H](C)[C@@H](CN(C)CC2CC2)Oc2c(NS(=O)(=O)c3ccc(Cl)cc3)cccc2C1=O	1.6	x
CN1C(=O)N(C)C(=O)C(CCc2ccncc2)(C2(C#N)CCCCC2)C1=O	2.3	0.7
O=C(O)C12CC3CC(C1)CC(n1ncc(NCc4ccc(F)cc4)c(Cl)c1=O)(C3)C2	0.7	x
C[C@H](CO)N1C[C@H](C)[C@H](CN(C)C(=O)Nc2ccc3c(c2)OCO3)Oc2c(NC(=O)c3nc4ccccc4s3)cccc2C1=O	1.2	x
C[C@H](CO)N1C[C@H](C)[C@H](CN(C)CC2CC2)Oc2c(NC(=O)Nc3ccc(C(F)(F)F)cc3)cccc2C1=O	-0.1	x
CC(C)CCOc1ccc(C(=O)C(CN2CCOCC2)c2ccccc2)cc1 (stereo not given)	77.5*	0.7

Single records, as listed above. Order of values: BJeLR viab HTS	A1 inhib
Profile of `NNc1nncc2ccccc12` = 2.2	0.3
Profile of `C[C@H](CO)N1C[C@H](C)[C@H](CN(C)CC2CC2)Oc2c(NC(=O)Nc3ccc(C(F)(F)F)cc3)cccc2C1=O` = -0.1	x
